Screens as filed in PubChem.
RE007 growth inh – less growth of the S. pombe RE007 Vpr strain | S. pombe RE007 Vpr strain, BacTiter-Glo ATP luminescence, 24 h; control for the full effect not named in the record | Potency, µM (titrated, usually from 92.2 µM), inactives show at the highest dose activity change, negative = less growth | 0.21% of 360,000 active; active = well fitted falling curve with a large enough effect; inconclusive = small, poorly fitted or top-dose-only effect; inactive = no such curve, though single readings can be large or run the other way;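 also: % is scaled to controls: 0 for no effect and ±100 for the full control effect; nearly all actives have a fitted effect of over 50% in size; the assay follows cell death caused by Vpr and the record does not say whether a fall means rescue or toxicity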
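Fission yeast RE007 carrying one integrated HIV-1 vpr copy, seeded at OD 0.01 in PMG+AL medium with 23 nL pinned compound. Grown 24 h at 30 degrees; viability read by BacTiter-Glo luminescence after 5 min.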
2A StopGo – lowers the luciferase signal of an FMDV 2A StopGo reporter; human cells with a luciferase reporter of 2A StopGo recoding; control for the full effect not named in the record; Potency, µM (doses to about 57.9 µM), without a hit: at the highest dose signal change, negative = less light; 1.2% of 410,000 active; active = well fitted falling curve with a large enough effect; inconclusive = small, poorly fitted or top-dose-only effect; inactive = no such curve, though single readings can be large or run the other way; tested in HEK293T cells; also: % is scaled to controls: 0 for no effect and ±100 for the full control effect; nearly all actives have a fitted effect of over 45% in size; luciferase light after 4 h
Marburg entry inh – blocks Marburg virus binding to or entry into cells. Marburg virus pseudotyped entry inhibition, cell reporter; control for the full effect not named in the record; about a third of the inactives were read at about 46 µM. Potency, µM (series often up to 37.8 µM), without a hit: at the top dose activity change, negative = inhibition, hits mostly inhibitors. 1.8% of 300,000 active. AID 540276; active = well fitted inhibition curve with a large enough effect; inconclusive = small, poorly fitted or top-dose-only effect, or effect the other way; inactive = flat fitted curve, though single readings scatter; tested in HEK293 cells; about a fifth of its hits are not listed in these tables; also: % is scaled to controls: 0 for no effect and ±100 for the full control effect; luciferase read-out
Cruzain inh noDet – blocks cruzain activity in detergent-free assay. Potency, µM, for the others: max response, negative = inhibition, usual class: inhibitors. 2.3% of 200,000 active. P25779. purified cruzain, Z-FR-AMC fluorescence, no detergent; active = well fitted curve in the direction sought with a large enough effect; inconclusive = small, poorly fitted or top-dose-only effect, or another doubt; inactive = no such curve, though single readings can be large; an effect the other way counts as inactive or inconclusive;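 also: plate controls were enzyme without inhibitor for no effect and buffer without enzyme for full effect; nearly all actives have a fitted effect of over 40% in size; top concentration of the series not given in the record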
Target sequence (P25779 123-467 limits assumed): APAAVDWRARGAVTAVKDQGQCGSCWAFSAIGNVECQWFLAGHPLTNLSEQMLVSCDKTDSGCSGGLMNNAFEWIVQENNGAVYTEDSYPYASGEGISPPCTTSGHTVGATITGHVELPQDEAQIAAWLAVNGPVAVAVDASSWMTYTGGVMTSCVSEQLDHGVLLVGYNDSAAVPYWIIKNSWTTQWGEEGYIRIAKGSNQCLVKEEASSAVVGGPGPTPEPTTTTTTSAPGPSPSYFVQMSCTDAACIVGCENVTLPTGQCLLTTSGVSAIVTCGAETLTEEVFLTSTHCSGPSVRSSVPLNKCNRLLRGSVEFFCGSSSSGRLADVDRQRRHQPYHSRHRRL
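Detergent-free condition (0.00005% Triton X-100) in acetate buffer pH 5.5 with DTT. 1.5 nM enzyme and compound were pre-mixed 15 min, then 2 uM Z-FR-AMC substrate added; reaction progress from fluorescence change between first and third reads (60 s).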
Cruzain Triton – cruzain (T. cruzi) inhibition with detergent; 0.43% of 200,000 active; purified cruzain, Z-FR-AMC fluorescence, 0.01% Triton; P25779; Potency, µM, for the others: max response, negative = inhibition, hits mostly inhibitors; active = well fitted curve in the direction sought with a large enough effect; inconclusive = small, poorly fitted or top-dose-only effect, or another doubt; inactive = no such curve, though single readings can be large; an effect the other way counts as inactive or inconclusive;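 also: plate controls were neutral wells for no effect and buffer without enzyme for full effect; nearly all actives have a fitted effect of over 40% in size; top concentration of the series not given in the record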
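Cruzain (1.5 nM) preincubated 15 min at RT with compound in 100 mM sodium acetate pH 5.5, 5 mM DTT, 0.01% Triton X-100. Reaction started with 2 uM Z-FR-AMC; AMC fluorescence (ex 360/em 450 nm) change over 60 s gave rate.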
NS1 function inh – blocks influenza NS1 protein function. S. cerevisiae slowed by influenza A NS1, growth recovery by OD600. Potency, µM (doses to about 46.1 µM), for inactives: top-dose activity, positive = more growth. 0.4% of 270,000 active. AID 2326; also: actives are rising curves; nearly all actives have a fitted effect of over 50% in size
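A cell-based growth assay was used: compounds that relieve NS1-induced slow growth of budding yeast raise OD600. Assay medium was yeast nitrogen base with ammonium sulphate and -URA supplement, pH 6.0, with 2% galactose.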
SARS PLpro yeast – SARS-CoV PLP inhibition in yeast; AID 485353; S. cerevisiae expressing SARS-CoV PLpro, growth rescue; control for the full effect not named in the record; Potency, µM (doses to about 32.9 µM), for the others: at the top dose activity, positive = growth rescue; 0.19% of 330,000 active; also: 0% is about no effect; nearly all actives have a fitted effect of over 55% in size; growth read by luminescence after 48 h
LASV entry inh – blocks Lassa virus binding to or entry into cells. Lassa virus pseudotype entry inhibition, cell reporter; control for the full effect not named in the record. Potency, µM (series often up to 37.9 µM), for inactives: at the top dose activity change, negative = inhibition, hits mostly inhibitors. 1.2% of 300,000 active. AID 540256; active means well fitted inhibition curve with a large enough effect; inconclusive means small, poorly fitted or top-dose-only effect, or effect the other way; inactive means flat fitted curve, though single readings scatter; tested in HEK293 cells; also: % is scaled to controls: 0 for no effect and ±100 for the full control effect; nearly all actives have a fitted effect of over 50% in size; luciferase read-out
* marks the source's active call; other numbers are inactive results; u = inconclusive; x = no result given; [ ] = dose if it differs, or a comment. Unless noted, calls follow the shape of the dose curve; as a rule, active means well fitted rising curve with a large enough effect; inconclusive means small, poorly fitted or top-dose-only effect; inactive means no such curve, though single readings can be large or run the other way. Potency is read from the fitted curve at half-maximal effect.

structure	RE007 growth inh	2A StopGo	Marburg entry inh	Cruzain inh noDet	Cruzain Triton	NS1 function inh	SARS PLpro yeast	LASV entry inh
Nc1c2c(nc3sc4c(c13)CCCC4)-c1ccccc1CC2	2%	-42%	7.1µM*	x	x	2%	-2%	11µM*
COc1ccc(C(=O)N/N=C(\C)c2ccc3c(c2)C2C=CCC2C(c2ccccc2)N3)cc1 (stereo not drawn)	-12%	-19%	-5%	u	-6.1%	21%	5%	u
Cc1ccnc(NS(=O)(=O)c2ccc(NC(=O)Cc3c(F)cccc3Cl)cc2)n1	0%	-8%	x	x	x	10%	3%	x
CCCS(=O)(=O)c1c(S(=O)(=O)CCC)c2ccccn2c1C(=O)OC	5%	-24%	-3%	5%	-1.6%	-100%	-2%	-8%
COCCN(Cc1cc2cc(C)ccc2nc1Cl)C(=O)Nc1ccccc1OC	9%	-18%	x	x	x	1%	0%	x
O=C(NCCC1=CCCCC1)C1CCN(S(=O)(=O)c2ccc(Br)s2)CC1	u	-21%	-31%	-10%	-4.3%	4%	-15%	-23%
CC(=NNC(=O)CCC(=O)Nc1ccccc1Cl)c1ccco1	-2%	10%	-1%[46.1 µM]	x	x	x	3%	-4%[46.1 µM]
Cc1noc(C)c1S(=O)(=O)N1CCC(C(=O)N2CCN(c3ccccc3)CC2)CC1	x	4%	-1%[46.1 µM]	24%	-0.6%	x	x	-8%[46.1 µM]
c1ccc(-n2nnnc2SCc2ccccn2)cc1	-6%	11%	u	2%	5.1%	5%	-4%	2%
O=C(Cc1ccc(N(CCCl)CCCl)cc1)NC(Cc1ccc(Cl)cc1)C(=O)O (stereo not drawn)	3%	-1%	x	x	x	14%	-7%	x
COc1ccc(CCNc2oc(COc3ccccc3F)nc2C#N)cc1	-2%	1%	5%	u	-9.2%	-71%	-22%	-11%
CC1(C)Cc2ccccc2-c2nnc(SCC(=O)Nc3ccc4c(c3)OCO4)n21	5%	u	-21%	-9%	4.1%	-20%	4%	-3%
O=C1Oc2ccccc2C(=O)/C1=C/N1CCN(c2ccccc2F)CC1	1%	-14%	17%[46.1 µM]	x	x	2%	2%	24%
CCCOc1ccc(-c2nc3ccccc3c(=O)o2)cc1	x	29%	18%[46.1 µM]	-2%	-5.7%	x	x	u
COc1ccc(OC)c(NC(=O)N2c3ccccc3Sc3ccccc32)c1	x	3%	-3%[46.1 µM]	u	-5.8%	x	x	19%[46.1 µM]
NC(=O)CSCc1c(Cl)cccc1Cl	4%	x	22%	-4%	7.5%	-6%	3%	3%
COc1cc2[nH]c(=S)n(Cc3ccco3)c(=O)c2cc1OC	13%	-15%	-5%	-8%	-2.4%	4%	10%	18%[14.3 µM]
CCOC(=O)c1c(NC(=O)c2ccc(S(=O)(=O)N(C)C3CCCCC3)cc2)sc2c1CCN(C(C)C)C2	x	-2%	x	14%	-1.1%	x	x	u
Cc1ccc(S(=O)(=O)N2CCCCC2)cc1NC(=O)Cn1cnnn1	0%	-15%	x	x	x	3%	-1%	x
COC(=O)[C@@]1(Cc2ccc(F)cc2)[C@H]2c3cc(C(=O)N4CCCC4)n(Cc4ccccc4)c3C[C@H]2CN1C(=O)c1ccccc1	u	u	x	0%	0.8%	x	x	x
COc1ccc(CCC(=O)N2CCN(c3cccc(C)c3C)CC2)cc1	-19%	-6%	20%[46.1 µM]	x	x	-11%	-2%	x
O=C(NNc1ccccc1)C(=O)NNS(=O)(=O)c1ccc(CCCl)cc1	15%	-11%	x	x	x	-5%	1%	x
O=C(NNc1nc2c(F)cccc2s1)C1COc2ccccc2O1 (stereo not drawn)	-3%	10%	23%[46.1 µM]	x	x	x	0%	-2%[46.1 µM]
CCc1cccc(CC)c1N(COC)C(=O)Cn1c(CC)nc2ccccc21	x	21%	-17%[46.1 µM]	20%	-4.2%	x	x	-4%[46.1 µM]
COc1ccc(Cl)cc1NC(=O)CSc1nnc(CN2CCOCC2)n1-c1ccc(Cl)cc1	-1%	0%	u	u	-3.6%	-54%	-1%	-13%

Further structures follow.
structure	RE007 growth inh	2A StopGo	Marburg entry inh	Cruzain inh noDet	Cruzain Triton	NS1 function inh	SARS PLpro yeast	LASV entry inh
COc1cc(/C=N\Nc2nc(-c3cccs3)c(NC(C)=O)s2)ccc1O	0%	0%	11%[46.1 µM]	x	x	13%	4%	-12%[46.1 µM]
CCN(CC)S(=O)(=O)c1ccc(NC(=O)COC(=O)c2cnc(C)cn2)cc1	1%	-12%	1%	x	x	x	-2%	-1%[46.1 µM]
COc1ccc(C(C)=O)cc1CSc1nc(NCc2ccc(Cl)cc2)c2ccccc2n1	x	-22%	x	8%	3.1%	x	x	11%[46.1 µM]
Nc1ccccc1C(=O)OCC(=O)N1CCc2ccccc21	-19%	50%[activator]	u	-5%	-1.2%	-9%	-4%	1%
COC(=O)c1ccccc1NC(=O)c1cccc(NC(=O)c2ccc(Br)o2)c1C	7%	-24%	u	13%	-3.5%	-89%	-10%	u
CCCCc1ccc(NC(=S)NCCc2ccc(S(N)(=O)=O)cc2)cc1	4%	-26%	u	x	x	5%	0%	0%[46.1 µM]
Cc1cccc(/C=C/c2ccccc2)n1	x	39%[activator]	u	4%	-6.9%	-4%	x	u
COc1ccc(OCc2nc(N)nc(Nc3ccccc3)n2)cc1	-10%	4%	u	-3%	-9.3%	7%	-9%	0%
COc1ccc(C(O)c2cc(OC)ccc2OP(=O)(N(C)C)N(C)C)cc1 (stereo not drawn)	u	11%	4%	17%	-1.6%	-5%	8%	0%
COc1ccccc1C(=O)C(O)c1ccccc1OC (stereo not drawn)	-8%	-4%	-22%	-1%	-1.1%	10%	0%	0%
CC(=O)N1CCSc2ccc(S(=O)(=O)NCCc3ccc(C)cc3)cc21	17%	26%	u	x	x	7%	2%	7.9µM*
CC(=O)NCCNC(=O)[C@H](Cc1ccccc1)NC(=O)c1cccs1	11%	-11%	-5%	2%	4.2%	-4%	0%	13%
CCOC(=O)C1=C(O)/C(=C/c2ccc(OCC(=O)O)c(OC)c2)SC1=Nc1ccc(OC)cc1	x	-18%	-6%	u	-11%	8%	-2%	1%
O=C(CN1C(=O)S/C(=C\c2ccc(F)cc2)C1=O)NCCCn1ccnc1	-9%	10%	x	x	x	-11%	-1%	x
O=C(COC(=O)CCC(=O)c1ccc(F)cc1)NCc1ccccc1Cl	2%	-12%	-7%[46.1 µM]	x	x	x	-2%	-8%[46.1 µM]
O=C(NCc1cccnc1)C(=O)NCC(c1ccco1)N1CCN(c2ccccc2)CC1 (stereo not drawn)	0%	-29%	7%	4%	-1.7%	6%	25%	9%
Nc1nc(-c2ccc(F)cc2)cs1	-15%	16%	1%[46.1 µM]	x	x	-7%	-2%	6%
O=C(NNC(=O)C1CCCC1)c1cc([N+](=O)[O-])cc([N+](=O)[O-])c1	-5%	-8%	1%	x	x	x	3%	15%
COc1c(Cl)ccc(Cl)c1C(=O)NC(=O)Nc1nc(C)cc(C)n1	2%	-14%	12%	x	x	8%	6%	0%
O=C(CSc1nc2ccccc2[nH]1)N/N=C/c1ccncc1	3%	1%	u	x	x	1%	0%	23%[46.1 µM]
Cn1cnnc1SCC(=O)Nc1ncc([N+](=O)[O-])s1	0%	53%[activator]	18%	x	x	x	-4%	1%
Cn1c(CCN2CCCCC2)nc2cc(NC(=O)Nc3ccccc3)ccc21	-16%	23%	-12%	-7%	1.3%	-4%	3%	13%
CCn1cc(C(=O)N2CCN(c3ccccc3F)CC2)c(=O)c2cc(S(=O)(=O)N(C)C3CCCCC3)ccc21	x	22%	3%[46.1 µM]	-8%	-2.6%	x	x	9%[46.1 µM]
CC1CC(C)CN(S(=O)(=O)CC23CCC(CC2=O)C3(C)C)C1 (stereo not drawn)	-7%	15%	-6%[46.1 µM]	x	x	3%	1%	18%[46.1 µM]
COc1cc(C(=O)NCCNC(=O)C2CCCNC2=O)cc(OC)c1OC (stereo not drawn)	-8%	-27%	-20%[46.1 µM]	x	x	-7%	0%	1%

(list continues)
structure	RE007 growth inh	2A StopGo	Marburg entry inh	Cruzain inh noDet	Cruzain Triton	NS1 function inh	SARS PLpro yeast	LASV entry inh
O=C(N=C1SC2CS(=O)(=O)CC2N1c1ccccc1)c1ccccc1 (stereo not drawn)	0%	0%	5%[46.1 µM]	x	x	x	-6%	-1%[46.1 µM]
O=C(O)c1cccc(-c2ccc(/C=N/Nc3nn[nH]n3)o2)c1	1%	54%[activator]	7%[46.1 µM]	x	x	x	4%	12%
CCOn1c(=O)c(-c2ccc(F)cc2)[n+]([O-])c2ccccc21	1%	-12%	x	x	x	1%	1%	x
COc1ccc(N2CCN(C(=O)CCc3nnc4ccc(N5CCC(C)CC5)nn34)CC2)cc1	-2%	u	x	x	x	-41%	2%	x
CCCn1c(=N)c(S(=O)(=O)c2ccc(F)cc2)cc2c(=O)n3ccccc3nc21	-4%	-14%	x	x	x	2%	4%	x
O=C(NCc1ccccc1)c1c(O)c2cccc3c2n(c1=O)CCC3	-3%	0%	-8%	-10%	-6.5%	-52%	0%	-16%
CCOC(=O)C(C)n1cnc2c(nnn2-c2cccc(OC)c2)c1=O (stereo not drawn)	16%	64%[activator]	u	x	x	4%	0%	11%
Cn1c(CN2CCN(c3ccc(Cl)cc3)CC2)nc2ccccc21	1%	-29%	u	2%	-1.6%	-65%	8.9µM*	20%
Cc1nc2ccccc2c(=O)n1/N=C/c1ccccc1O	-3%	-4%	u	x	x	-10%	0%	u
COc1ccccc1N1CCN(CC(=O)Nc2c(C)n[nH]c2C)CC1	0%	4%	0%	-7%	0.4%	-2%	2%	-8%
CC1Oc2ccccc2N(CC(=O)NCc2ccc3c(c2)OCO3)C1=O (stereo not drawn)	-15%	57%[activator]	2%[46.1 µM]	x	x	1%	1%	-12%
COc1ccc2oc(C(=O)OCC(=O)N3CCN(S(=O)(=O)c4ccccc4)CC3)c(C)c2c1	4%	-19%	u	x	x	x	1%	-17%
O=C(c1ccco1)N(Cc1ccco1)c1ccc(O)cc1	2%	-18%	-1%	2%	2.5%	0%	-3%	-19%
O=C(N/N=C/c1coc2ccc(Cl)cc2c1=O)c1ccc(O)cc1	-7%	-9%	x	x	x	-10%	-2%	x
